rRNA inh HTS = selective bacterial rRNA inhibition in E. coli | E. coli WT GFP vs humanized-ribosome RFP mutants, fluorescence, 24 h; hits give low values; DMSO median 0, no signal -100 | GFP signal change (wild-type ribosome), % (test concentration not listed) | hit rate 1.6% among 350,000 | AID 720706;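 active means significant combined selectivity score with lowered wild-type GFP, culture density cut under 30%, mutant RFP and density less affected; inactive means any of these conditions unmet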; further: one replicate is shown; some compounds called inactive have numbers as strong as hits
rRNA inh HTS OD600 = further read-out of rRNA inh HTS, marked with its call; OD600 change, %; measured here: OD600 growth;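 optical density of the mix in the first replicate; 0 = DMSO median and -100 = no signal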
rRNA inh HTS RFP = further read-out of rRNA inh HTS, marked with its call; RFP signal change, %; measured here: RFP humanized mutant strains;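 first replicate; 0 = DMSO median and -100 = no signal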
Active calls of the source: *.

Fields – rRNA inh HTS | rRNA inh HTS OD600 | rRNA inh HTS RFP
CO[C@H]1CN(C)C(=O)c2ccc(NC(C)=O)cc2OC[C@H](C)N(C(=O)c2cnccn2)C[C@H]1C
  -3 | -8 | -2.6
CCC(=O)Nc1ccc2c(c1)C(=O)N(C)C[C@H](OC)[C@@H](C)CN(CC1CCOCC1)[C@@H](C)CO2
  0 | 2 | -3.6
CO[C@H]1CN(C)C(=O)c2cc(NS(C)(=O)=O)ccc2OC[C@H](C)N(Cc2cccnc2)C[C@H]1C
  -1 | -3 | -1.9
CN(C)CC(=O)Nc1ccc2c(c1)C(=O)N(C)[C@H]1CC[C@H](CC(=O)Nc3ccc(F)cc3)O[C@@H]1CO2
  -1 | 3 | -1.5
C[C@H]1CN([C@@H](C)CO)C(=O)c2cccc(NS(C)(=O)=O)c2O[C@@H]1CN(C)S(=O)(=O)c1ccc(F)cc1
  2 | 0 | -1.0
CCC(=O)N1C[C@@H](C)[C@H](OC)CN(C)C(=O)c2ccc(NC(=O)C3CCOCC3)cc2OC[C@H]1C
  0 | -4 | 0.6
C/C=C/c1ccc([C@@H]2[C@H](CO)N[C@@H]2CN(C)S(=O)(=O)c2ccccc2)cc1
  0 | 5 | 6.1
Cc1ccc(S(=O)(=O)Nc2ccc3c(c2)CC(=O)N([C@@H](C)CO)C[C@H](C)[C@@H](CN(C)Cc2ccc(C(F)(F)F)cc2)O3)cc1
  -1 | 3 | 0.7
CCC(=O)N1C[C@H](C)[C@H](OC)CN(C)C(=O)c2ccc(NC(=O)c3cc(C)on3)cc2OC[C@@H]1C
  -3 | -2 | -3.2
O=C(c1ccncc1)N1CC(=O)N2[C@H](CO)[C@@H](c3ccc(C#CCC4CCCC4)cc3)[C@@H]2C1
  -33 | -61 | 9.1
C[C@H](CO)N1C[C@H](C)[C@H](CN(C)Cc2cccc(C(F)(F)F)c2)OCc2cnnn2CCCC1=O
  -6 | -12 | -0.8
C[C@@H]1CC(=O)NCC/C=C\C[C@@H](c2cccc(Cl)c2)NC1=O
  4 | 16 | 1.7
CNC[C@@H]1Oc2ccccc2CC(=O)N(C)C[C@@H]1C
  0 | 5 | -0.6
Cc1noc(C)c1NC(=O)N(C)C[C@@H]1OCCCC[C@@H](C)Oc2ccc(N(C)C)cc2C(=O)N([C@H](C)CO)C[C@H]1C
  2 | 4 | -0.5
CN1[C@@H]2c3ccc(-c4ccc(F)cc4)c(=O)n3C[C@H]1[C@H](CO)[C@H]2C(=O)NC1CCC1
  1 | -2 | -1.5
C[C@H](CO)N1C[C@H](C)[C@H](CN(C)C(=O)C2CCC2)Oc2cc(-c3ccc(F)cc3)ccc2S1(=O)=O
  -19 | -36 | 2.1
C/C=C/c1ccc2c(c1)O[C@@H](CN(C)CC1CC1)[C@@H](C)CN([C@@H](C)CO)S2(=O)=O
  5 | 9 | -1.8
CC(C)NC(=O)N(C)C[C@@H]1Oc2ccc(NS(C)(=O)=O)cc2CC(=O)N(C)C[C@H]1C
  3 | 5 | 0.3
C[C@@H]1CC=CC[C@H](c2ccc3c(c2)OCO3)NC(=O)[C@H](C)N(C)C(=O)c2ccccc2O1 (mixture of isomers)
  -8 | -18 | 0.2
Cc1noc(C)c1S(=O)(=O)Nc1ccc2c(c1)C(=O)N([C@@H](C)CO)C[C@@H](C)[C@@H](CN(C)S(=O)(=O)c1c(C)noc1C)O2
  1 | 4 | -2.6
C[C@H]1CN([C@@H](C)CO)C(=O)c2cc(NC(=O)Nc3ccc(F)cc3)ccc2O[C@H]1CN(C)C(=O)Nc1ccc(C(F)(F)F)cc1
  -7 | -14 | 0.7
O=C(C[C@H]1C[C@H]2c3cc(NC(=O)NC4CCCC4)ccc3O[C@H]2[C@@H](CO)O1)NCc1ccc(-c2ccccc2)cc1
  -2 | -6 | 2.1
C[C@H]1CN([C@@H](C)CO)C(=O)c2cc(-c3cccnc3)cnc2O[C@@H]1CN(C)C(=O)Nc1ccccc1
  -1 | 4 | -3.4
COCC(=O)Nc1ccc2c(c1)C(=O)N(C)C[C@H](OC)[C@@H](C)CN[C@@H](C)CO2
  4 | 6 | -2.5
C[C@H](O)C#Cc1ccc([C@@H]2[C@@H](CO)N3CCCCN(CC4CCOCC4)C[C@H]23)cc1
  1 | 12 | -1.8
COc1ccc2c3c([nH]c2c1)[C@H](CO)N(S(=O)(=O)c1cn(C)cn1)CC31CCN(Cc2ccccc2Cl)CC1
  -3 | -7 | -2.0
COc1ccc2c3c([nH]c2c1)[C@H](CO)N(C(=O)C1CCOCC1)CC31CN(C)C1
  4 | 15 | -2.9
C[C@H]1CC(=O)NCC/C=C\C[C@H](c2cccc(Cl)c2)NC1=O
  -3 | -5 | -3.0
Cc1noc(C)c1S(=O)(=O)N(C)C[C@@H]1Oc2c(NC(=O)C3CCOCC3)cccc2C(=O)N([C@@H](C)CO)C[C@@H]1C
  5 | 1 | -4.3
C/C=C/c1ccc([C@@H]2[C@H](CO)N(C(=O)C3CCCC3)C23CN(S(=O)(=O)CC)C3)cc1
  -4 | -3 | 2.7

Arranged by the number under rRNA inh HTS RFP (largest number first): some entries from above.
Fields – rRNA inh HTS | rRNA inh HTS OD600 | rRNA inh HTS RFP
C/C=C/c1ccc([C@@H]2[C@H](CO)N[C@@H]2CN(C)S(=O)(=O)c2ccccc2)cc1
  0 | 5 | 6.1
C[C@H](CO)N1C[C@H](C)[C@H](CN(C)Cc2cccc(C(F)(F)F)c2)OCc2cnnn2CCCC1=O
  -6 | -12 | -0.8
C[C@H]1CN([C@@H](C)CO)C(=O)c2cccc(NS(C)(=O)=O)c2O[C@@H]1CN(C)S(=O)(=O)c1ccc(F)cc1
  2 | 0 | -1.0
CO[C@H]1CN(C)C(=O)c2cc(NS(C)(=O)=O)ccc2OC[C@H](C)N(Cc2cccnc2)C[C@H]1C
  -1 | -3 | -1.9

Carrying on.
Fields – rRNA inh HTS | rRNA inh HTS OD600 | rRNA inh HTS RFP
COc1ccc(S(=O)(=O)Nc2cccc3c2O[C@H](CN(C)Cc2ccc(Cl)c(Cl)c2)[C@H](C)CN([C@H](C)CO)C3=O)cc1
  -4 | -4 | 0.6
COc1ccc(NC(=O)N(C)C[C@@H]2OCCCC[C@@H](C)Oc3ccc(N(C)C)cc3C(=O)N([C@H](C)CO)C[C@H]2C)cc1
  -6 | -10 | -3.5
C[C@H]1CN([C@@H](C)CO)C(=O)c2cccc(NC(=O)Nc3ccccc3)c2O[C@@H]1CN(C)S(=O)(=O)c1cccs1
  1 | 1 | -2.2
C/C=C/c1ccc([C@H]2[C@@H](CO)N(C(=O)NCCC)[C@@H]2CNC(=O)C2CCC2)cc1
  0 | 4 | 2.3
C[C@@H]1CN([C@@H](C)CO)C(=O)CCCn2cc(nn2)CO[C@@H]1CN(C)C(=O)Nc1ccccc1C(F)(F)F
  0 | 1 | -1.5
O=C(Nc1cc(F)ccc1F)N1CCCCN2[C@H](CO)[C@@H](c3ccc(-c4cccnc4)cc3)[C@@H]2C1
  0 | -39 | 5.6
COc1ccc(C[C@H]2CCn3cc(nn3)COC[C@@H](Cc3ccccc3)NC2=O)cc1
  4 | 3 | -2.7
CCCNC(=O)N1C[C@H]2[C@@H](c3ccccc31)[C@@H](CO)N2CC1CCCCC1
  -1 | -5 | 0.3
COCC(=O)Nc1ccc2c(c1)OC[C@H](C)N(C(=O)c1ccccn1)C[C@H](C)[C@H](OC)CN(C)C2=O
  2 | 7 | -1.8
CO[C@H]1CN(C)C(=O)c2ccc(NC(=O)NC(C)C)cc2OC[C@@H](C)N(Cc2cocn2)C[C@H]1C
  0 | 0 | -1.0
CNC[C@H]1OCCCC[C@@H](C)Oc2ccc(NS(=O)(=O)c3ccc(C)cc3)cc2C(=O)N([C@@H](C)CO)C[C@@H]1C
  7 | 0 | -1.2
C[C@H](CO)N1C[C@H](C)[C@H](CN(C)C(=O)Nc2ccc(C(F)(F)F)cc2)Oc2ccc(NC(=O)Nc3ccc(F)cc3)cc2C1=O
  -3 | -5 | 0.2
C[C@H](CO)N1C[C@H](C)[C@H](CN(C)Cc2ccncc2)OCc2cnnn2CCCC1=O
  0 | -2 | -0.2
C[C@@H]1CN([C@H](C)CO)C(=O)c2cc(N(C)C)ccc2O[C@@H](C)CCCCO[C@@H]1CN(C)Cc1ccc(C(=O)Nc2ccccc2N)cc1
  1 | 0 | 0.1
C[C@@H]1CN([C@@H](C)CO)C(=O)c2c(c3ccccc3n2C)-c2ccccc2CO[C@H]1CN(C)Cc1ccccc1
  -38 | -32 | 10
O=C(Nc1ccccc1)N1C[C@@H]2[C@H](c3ccccc31)[C@H](CO)N2C(=O)c1ccccc1F
  1 | 6 | -1.8
Cc1ccc(OC(=O)N(C)C[C@H]2OCc3cn(nn3)CCCC(=O)N([C@H](C)CO)C[C@H]2C)cc1
  1 | 5 | -0.2
C[C@H](CO)N1C[C@H](C)[C@@H](CN(C)S(C)(=O)=O)OCCCC[C@H](C)Oc2ccc(NC(=O)CCC(F)(F)F)cc2C1=O
  -4 | 4 | -1.2
CN1C(=O)c2cc(NC(=O)c3ccc(F)c(F)c3)ccc2OC[C@H]2O[C@H](CC(=O)O)CC[C@@H]21
  1 | 1 | 0.3
CNC[C@H]1OCCCC[C@H](C)Oc2ccc(NC(=O)CCC(F)(F)F)cc2C(=O)N([C@@H](C)CO)C[C@H]1C
  3 | 6 | -0.5
O=C(Cc1cccnc1)N1CC(=O)N2[C@H](CO)[C@@H](c3ccc(-c4cccc(F)c4)cc3)[C@H]2C1
  2 | 8 | 2.1
C/C=C/c1ccc2c(c1)O[C@H](CN(C)C(=O)C1CCC1)[C@@H](C)CN([C@@H](C)CO)S2(=O)=O
  -1 | -13 | 1.0
CC(=O)Nc1cccc2c1O[C@H](CN(C)C(=O)NC(C)C)[C@@H](C)CN(C)C2=O
  -1 | -2 | -1.3
C[C@@H]1CN([C@H](C)CO)C(=O)Cc2cc(NS(=O)(=O)c3ccccc3)ccc2O[C@@H]1CN(C)C(=O)Nc1ccc2c(c1)OCO2
  -5 | -5 | -2.8
CO[C@H]1CN(C)C(=O)c2ccc(NC(C)=O)cc2OC[C@H](C)N(C(=O)CN(C)C)C[C@@H]1C
  2 | 5 | -3.7
COc1cccc(C(=O)Nc2ccc3c(c2)OC[C@H](C)N(C)C[C@H](C)[C@H](OC)CN(C)C3=O)c1
  1 | 3 | -1.9
C[C@@H]1CN([C@@H](C)CO)C(=O)c2cc(N(C)C)ccc2O[C@@H](C)CCCCO[C@@H]1CN(C)C(=O)Nc1ccc(C(F)(F)F)cc1
  -1 | -4 | -3.8
C[C@@H]1CCCCO[C@H](CN(C)C(=O)c2ccccc2)[C@H](C)CN([C@@H](C)CO)C(=O)c2cc(NC(=O)CCCN(C)C)ccc2O1
  1 | 5 | -1.8
C[C@@H]1CN([C@@H](C)CO)C(=O)c2cc(NC(=O)Nc3ccc4c(c3)OCO4)ccc2O[C@H]1CN(C)CC1CCCCC1
  -2 | -6 | -0.1
CCC(=O)N1[C@H](CO)[C@@H](c2ccc(-c3ccccc3)cc2)[C@@H]1CNC(=O)COC
  2 | -3 | -1.7

Going on with the list.
Fields – rRNA inh HTS | rRNA inh HTS OD600 | rRNA inh HTS RFP
C[C@H](CO)N1C[C@H](C)[C@@H](CN(C)C)Oc2c(NC(=O)Cc3cn(C)c4ccccc34)cccc2C1=O
  0 | -1 | -0.2
COc1ccc(NC(=O)N(C)C[C@@H]2Oc3c(NS(=O)(=O)c4ccccc4)cccc3C(=O)N([C@H](C)CO)C[C@@H]2C)cc1
  -3 | 0 | 1.5
Cc1noc(C)c1NC(=O)Nc1cccc2c1O[C@H](CN(C)C(=O)Nc1ccc(C(F)(F)F)cc1)[C@H](C)CN([C@H](C)CO)C2=O
  -1 | -9 | 1.3
C/C=C/c1ccc([C@H]2[C@@H](CO)N(Cc3ccccc3)[C@H]2CNC(=O)C2CC2)cc1
  1 | -4 | 2.0
C[C@@H]1CN([C@@H](C)CO)C(=O)c2cccc(NS(=O)(=O)c3ccc(Cl)cc3)c2O[C@@H]1CN(C)S(=O)(=O)c1cn(C)cn1
  -3 | 3 | -1.7
Cc1noc(C)c1S(=O)(=O)N(C)C[C@H]1Oc2ccc(N(C)C)cc2CC(=O)N([C@H](C)CO)C[C@H]1C
  -1 | -8 | -1.5
COC(=O)c1ccc(CN2CC(=O)N3[C@@H](CO)[C@H](c4ccc(-c5ccc(OC)cc5)cc4)[C@@H]3C2)cc1
  -5 | -6 | 2.1
C[C@@H]1CN([C@H](C)CO)C(=O)c2cc(NS(=O)(=O)c3ccc(Cl)cc3)ccc2O[C@H]1CN(C)S(C)(=O)=O
  0 | 1 | -1.8
C[C@H](CO)N1C[C@H](C)[C@@H](CN(C)C(=O)C2CCCCC2)Oc2cc(C#CC3CC3)ccc2S1(=O)=O
  -5 | -33 | 18
CO[C@@H]1CN(C)C(=O)c2cc(NC(=O)C3CCOCC3)ccc2OC[C@@H](C)N(C(=O)c2ccccc2)C[C@@H]1C
  1 | 8 | -0.9
CC(C)[C@H](C)NC(=O)N(C)C[C@H]1OCc2ccccc2-c2c(n(C)c3ccccc23)C(=O)N([C@H](C)CO)C[C@@H]1C
  -2 | -12 | 12

Three entries from above in a different format.
rRNA inh HTS,rRNA inh HTS OD600,rRNA inh HTS RFP,SMILES
-1,-8,-1.5,Cc1noc(C)c1S(=O)(=O)N(C)C[C@H]1Oc2ccc(N(C)C)cc2CC(=O)N([C@H](C)CO)C[C@H]1C
-5,-6,2.1,COC(=O)c1ccc(CN2CC(=O)N3[C@@H](CO)[C@H](c4ccc(-c5ccc(OC)cc5)cc4)[C@@H]3C2)cc1
0,1,-1.8,C[C@@H]1CN([C@H](C)CO)C(=O)c2cc(NS(=O)(=O)c3ccc(Cl)cc3)ccc2O[C@H]1CN(C)S(C)(=O)=O

Bioassay records (PubChem)

These rows are one share of the data. The share of hits here may be higher or lower than overall.
